Calb FLC – affects C. albicans growth with fluconazole; C. albicans CaCi-2 (fluconazole-resistant clinical isolate) + fluconazole, Alamar Blue growth, 48 h; growth inhibition, % (test concentration not listed); actives 0.57% (n = 300,000); AID 1979;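 active = most replicates above 75%; inconclusive = exactly half above 75%; inactive = most below 75%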;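 note: all wells also contain fluconazole at 8 µg/ml as a sub-toxic cotreatment; 0% = median of DMSO wells and 100% = median of geldanamycin control wells; wells of about 8 µL received 7.5 nL stock; the first replicate is given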
AF4-AF9 inh – inhibitors of human MLL-AF4/AF9 interaction; actives 0.47% (n = 350,000); inhibition, % at 10 µM; AlphaScreen, biotin-AF4 peptide binding to FLAG-AF9; AID 651704;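 active = every replicate reaching a set inhibition limit, whatever the replicate mean, cut at about 25% in these data; inconclusive = mean inhibition reaches that limit but some replicates miss it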;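 note: 0% = plate neutral control median and 100% = total signal loss; the record names both 10 and 1 µM as test concentration; the first replicate is given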
Target sequence (P42568 whole entry, looked up): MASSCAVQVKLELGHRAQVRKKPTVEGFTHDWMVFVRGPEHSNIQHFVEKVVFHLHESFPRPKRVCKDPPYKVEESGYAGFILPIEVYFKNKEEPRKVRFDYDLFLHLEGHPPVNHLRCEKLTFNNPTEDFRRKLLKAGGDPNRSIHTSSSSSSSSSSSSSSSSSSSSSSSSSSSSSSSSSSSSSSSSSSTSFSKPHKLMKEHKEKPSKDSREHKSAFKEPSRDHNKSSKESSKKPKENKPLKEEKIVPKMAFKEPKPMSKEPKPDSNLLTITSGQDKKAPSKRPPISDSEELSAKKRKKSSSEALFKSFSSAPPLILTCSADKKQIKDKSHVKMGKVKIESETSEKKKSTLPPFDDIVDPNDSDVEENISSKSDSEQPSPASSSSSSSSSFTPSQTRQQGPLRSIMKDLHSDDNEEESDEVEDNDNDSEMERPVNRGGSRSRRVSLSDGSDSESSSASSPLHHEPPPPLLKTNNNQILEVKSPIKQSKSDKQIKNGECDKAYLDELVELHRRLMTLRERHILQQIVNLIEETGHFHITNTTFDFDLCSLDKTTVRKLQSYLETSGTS
ALR inh – inhibitors of human sulfhydryl oxidase ALR | P55789 | purified ALR, DTT oxidation, H2O2 HRP-luminol luminescence | inhibition, % (test concentration not listed) | actives 3.8% (n = 290,000);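 active = mean and each replicate at 75% or more; inconclusive = only one of the two met; inactive = neither met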;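 note: stock transfer was 7.5 nL into about 7.5 µL; 0% = neutral wells and 100% = wells with inactivated enzyme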
Target sequence (P55789 whole entry, looked up): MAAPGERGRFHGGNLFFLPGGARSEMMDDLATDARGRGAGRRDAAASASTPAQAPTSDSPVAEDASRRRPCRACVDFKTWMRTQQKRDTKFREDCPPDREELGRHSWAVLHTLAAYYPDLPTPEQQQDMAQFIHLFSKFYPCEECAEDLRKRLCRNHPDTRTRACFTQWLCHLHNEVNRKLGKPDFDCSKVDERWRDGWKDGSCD
FGF22 binding – shifts melting point of recombinant human FGF22; recombinant FGF22 thermal shift, SYPRO orange fluorescence; percent of sucrose octasulfate shift, DMSO zero; calls only at 9.99 µM; Q9HCT0; actives 1.5% (n = 340,000);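 active = melting point raised past a set limit in the mean and every replicate; inconclusive = no clear call; three in four hits are not shown here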
Target sequence (Q9HCT0 whole entry, looked up): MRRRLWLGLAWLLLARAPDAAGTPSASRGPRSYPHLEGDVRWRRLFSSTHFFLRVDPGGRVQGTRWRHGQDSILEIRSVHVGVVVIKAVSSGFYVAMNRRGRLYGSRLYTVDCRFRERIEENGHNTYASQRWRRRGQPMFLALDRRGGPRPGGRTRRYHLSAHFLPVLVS
T cruzi inh – T. cruzi replication inhibition; inhibition, % (concentration not given with the values); AID 1885; T. cruzi beta-gal in NIH3T3, luminescence, 90 h; actives 1.4% (n = 300,000);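 active = mean inhibition across valid replicates above about 55%, limit read from the data; inconclusive = mean below that limit but half or more replicates reach it; inactive = mean below it, under half of replicates reach it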;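 note: signal also drops with host cell toxicity which is not excluded here; 0% = plate median of DMSO wells and 100% = zero luminescence signal; higher percent means less beta-gal luminescence so fewer parasites; stock transfer was 50 nL into about 50 µL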
RanGTP-Impb inh – disruptors of Ran-importin-beta complex formation – biochemical, FRET, CFP-Ran, YFP-importin-beta, homogeneous, primary screen; cell-free CFP-Ran/YFP-importin-beta FRET ratio; inhibition, % (concentration not given with the values); actives 1.1% (n = 300,000); AID 2216;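 active = most replicates above 15%; inconclusive = exactly half above 15%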;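 note: 0% = DMSO wells and 100% = Ran loaded with GDP instead of GTP; wells of about 40 µL received 100 nL stock; the first replicate is given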
Beta apoptosis – blocks beta cell apoptosis; actives 0.8% (n = 300,000); AID 435005; protection from apoptosis, % (concentration not given with the values); INS-1E cytokine-induced death, ATP luminescence, 48 h; percent of positive-control rescue, neutral wells zero;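 active = all replicates at 75% or more, or half of them and the mean; inconclusive = half reach 75% but not the mean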;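 note: 0% = cytokine-treated negative control wells and 100% = positive control rescue; higher means more ATP so stronger rescue from cytokine killing; wells of about 40 µL received 100 nL stock; the first replicate is given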
Ecoli rRNA inh – inhibits bacterial ribosomal RNA function over humanized ribosomes | E. coli WT GFP vs humanized-ribosome RFP mutants, fluorescence, 24 h; active compounds read low; DMSO median 0, no signal -100 | GFP signal change (wild-type ribosome), % (no concentration beside the values) | actives 1.6% (n = 350,000);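 active = significant combined selectivity score with lowered wild-type GFP, culture density cut under 30%, mutant RFP and density less affected; inactive = any of these conditions unmet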; note: one replicate is shown; some compounds called inactive have numbers as strong as hits
Ecoli rRNA inh OD600 – further read-out of Ecoli rRNA inh, marked with its call; OD600 change, %; measured here: OD600 growth;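 optical density of the mix in the first replicate; 0 = DMSO median and -100 = no signal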
Ecoli rRNA inh RFP – second read-out of Ecoli rRNA inh, no call of its own (marks repeat the call); RFP signal change, %; measured here: RFP humanized mutant strains;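 first replicate; 0 = DMSO median and -100 = no signal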
* marks the source's active call; other numbers are inactive results; i = inactive; ? = inconclusive; . = not tested or not shown. The list is partial, so the mix of outcomes need not match the whole.

Order of results: Beta apoptosis, RanGTP-Impb inh, ALR inh, Ecoli rRNA inh, Calb FLC, Ecoli rRNA inh OD600, AF4-AF9 inh, FGF22 binding, Ecoli rRNA inh RFP, T cruzi inh
[1] Nc1cc(Cl)nc(N/N=C/c2ccc([N+](=O)[O-])cc2)n1
  10.0, 2.1, -1.7, ., 8.0, ., ., ., ., -0.6
[2] O=C(CN1CCCC1)Nc1c2c(nc3ccccc13)N(Cc1ccccc1)CC2
  -0.4, 1.1, -15.2, 8.4, -10.1, 13.8, 9.9, i, 5.4, 9.5
[3] NC(=O)NC(Cc1ccccc1)C(=O)NNC(=O)COc1ccccc1Cl (stereo not drawn)
  -4.9, ., -13.4, 5.4, ., 7.3, -3.9, i, 1.1, .
[4] CCCc1ccc2oc(C(=O)N(C)Cc3ccn[nH]3)c(C)c2c1
  -3.8, 4.3, -1.9, -2.7, -20.2, -34.0, 1.3, i, -0.5, 17.3
[5] CCOC(=O)c1ccc2[nH]c3c(c2c1)CN(C)CC3
  3.0, 6.3, -5.2, -6.8, 30.2, -3.7, 10.4, i, 1.5, 9.6
[6] CCc1ccc(NC(=S)N(CCCN2CCN(C)CC2)Cc2cccs2)cc1
  -7.8, 1.3, 4.4, ., 2.2, ., ., ., ., -5.8
[7] CCOCCOc1cccc(C(=O)NC(c2ccccc2)c2ccccc2)c1
  2.3, -1.5, -5.3, 8.3, 8.6, 12.2, -10.2, i, -1.8, 8.8
[8] Cc1cccc(CN2CCC(C(=O)Nc3cccc(-c4cscn4)c3)CC2)n1
  -2.2, 0.9, 1.2, 10.6, 17.3, 6.9, -1.4, i, 0.3, 5.9
[9] O=C(Nc1cccc(S(=O)(=O)NC2=NCCCCC2)c1)c1cc(-c2ccccc2)nc2ccccc12
  -0.3, 4.1, ., ., 14.8, ., 0.3, i, ., 27.9
[10] COc1ccc(-c2nnc(SCC(=O)NNC(=O)c3ccc(C)cc3)o2)cc1
  2.8, 1.0, 0.1, ., -3.6, ., ., ., ., -9.8
[11] CC(C)(C)NC(=O)CON=C1c2ccccc2-c2ccccc21
  -2.9, -2.8, -1.3, -23.1, -3.7, -37.1, 11.3, i, 3.8, -4.8
[12] O=C(Nc1cc2c(=O)n(-c3ccc(Oc4ccccc4)cc3)ccc2oc1=O)c1ccccc1
  ., ?, -3.7, 14.6, -8.3, 13.1, 2.5, i, 1.4, -10.4
[13] O=C1CN(C(=O)COC(=O)C2=COCCO2)c2ccccc2N1
  3.1, 1.4, ., ., 0.4, ., ., ., ., -4.3
[14] Cc1c(C(=O)NC2CCC(C)CC2)oc2ccccc12 (stereo not drawn)
  0.6, 1.7, 4.4, 13.1, -13.5, 6.2, -4.2, i, 2.1, -7.3
[15] COC(=O)[C@@]1(Cc2ccc(F)cc2)[C@H]2c3cc(C(=O)N(C)C)n(CCc4ccccn4)c3C[C@H]2CN1C(=O)c1ccccc1
  -1.2, -0.5, -3.6, 4.8, 15.0, 6.2, -1.5, i, -1.1, 10.2
[16] CC(c1ccccc1)n1c(-c2cccs2)nc2c(c(=O)c3ccccc3n2C)c1=O (stereo not drawn)
  -5.2, 1.1, -0.1, 7.8, 10.8, -15.1, 0.1, i, -3.5, 31.1
[17] Cc1ccc2cc(CCNC(=O)c3ccc(C)c([N+](=O)[O-])c3)c(=O)[nH]c2c1
  -8.5, 5.3, -6.6, 16.7, -3.8, 21.7, 7.3, i, -0.5, 10.7
[18] C/C(=N/NC(=O)c1cnccn1)c1ccncc1
  -5.3, 1.5, -0.3, 15.4, 16.4, 16.2, -2.0, i, -6.7, -13.0
[19] Cc1ccc(N)cc1S(=O)(=O)N(C)C
  -3.4, -1.5, -13.7, 1.6, -9.5, 9.9, 0.9, i, -4.2, 15.4
[20] CCOc1ccc(NC(=O)c2ccc3[nH]c(=O)c(=O)[nH]c3c2)cc1
  -0.9, -2.1, -1.8, 6.2, -0.2, 16.1, 1.2, i, 2.4, -16.1
[21] CCOc1ccc(-c2nc(N)nc(C)c2-c2ccc(Cl)cc2)c(O)c1
  -3.1, -5.0, -11.2, -33.8, -0.5, -32.2, 11.9, i, 13.7, 19.5
[22] Cc1ccc(NC(=O)NCCN2CCCCC2)cc1C
  -2.9, 1.3, 4.8, 7.3, -0.2, 0.6, 5.1, i, 2.0, -7.1
[23] Cc1ccc(Cl)c(OCCN2CCCC(C)C2)c1 (stereo not drawn)
  -3.0, 6.8, 0.3, ., -1.5, ., ., ., ., -26.0
[24] Cc1ccc(S(=O)(=O)Nc2ccc(NC(=O)CN3CCCCC3)c(Cl)c2)cc1
  -3.5, -0.2, -14.4, ., -5.5, ., ., ., ., -2.3
[25] COc1ccc(C(=O)NNC(=O)Cc2coc3cc(OC)ccc23)cc1
  0.1, ., -0.1, 3.0, ., 9.0, -1.7, i, 3.3, .
[26] COc1ccc(-n2c(=S)[nH]c3cc(C(=O)Nc4ccc(C)c(F)c4)ccc3c2=O)c(OC)c1
  24.2, 7.1, -2.1, -19.1, -8.1, -19.8, 0.9, i, 3.1, 16.4
[27] O=C1CC2(CCN(S(=O)(=O)c3ccccc3)CC2)Oc2ccccc21
  -2.6, 0.6, -0.8, -1.4, 1.4, -3.4, 0.5, i, -3.0, 1.8
[28] O=C(Nc1ncn[nH]1)c1cc(S(=O)(=O)Nc2ccc(Cl)cc2)ccc1Cl
  2.1, -3.4, -5.2, ., 2.5, ., 2.9, i, ., -6.9
[29] CCOC(=O)c1[nH]c(C)c(CN(C(C)=O)c2ccc(OCC)cc2)c1C
  -3.7, -3.4, -24.4, -6.5, -3.7, -7.5, 1.6, ., -1.8, -14.4
[30] O=C(CN(C(=O)CNS(=O)(=O)c1ccc(F)cc1)c1ccc(F)cc1)NCc1ccco1
  -1.5, 5.4, -2.1, 4.3, 6.9, -5.0, 9.1, i, -0.8, 3.2
[31] COc1ccc(/C=N/N2CCN(C)CC2)c(OC)c1OC
  -5.5, ., 1.4, 15.8, -18.9, 13.7, 0.5, i, -0.5, 9.2
[32] CCOC(=O)c1sc2nc(N3CCOCC3)c3c(c2c1N)CCC3
  -1.7, 1.6, -0.3, ., -0.3, ., ., ., ., 11.4
[33] NCc1ccc2[nH]c(=O)[nH]c2c1
  -2.4, 3.2, -13.7, 19.0, 5.3, 13.1, 0.7, i, 1.1, -16.3
[34] O=C(Cc1nnc(NC(=O)c2ccccc2)s1)N/N=C/c1ccc(O)cc1
  -3.0, -3.0, ., 6.0, 6.9, 5.4, 1.4, i, 1.6, -3.4
[35] O=C(Nc1cccc(S(=O)(=O)NC2=NCCCCC2)c1)c1cc(-c2ccccc2Cl)nc2ccccc12
  43.2, ?, -14.0, ., 12.3, ., ., ., ., 16.5
[36] O=C(CCCCCN1C(=O)[C@@H]2Cc3ccccc3CN2C1=O)Nc1ccccc1F
  -2.4, ?, 1.0, -2.7, -12.9, -9.3, 0.1, i, -3.2, 5.7
[37] CC1(C)CC(=O)C(C=NCCN2CCN(CC(=O)Nc3ccc(F)cc3)CC2)=C(O)C1
  -4.1, -1.0, -6.3, 22.5, 22.6, 12.6, 2.2, i, 0.0, 5.8
[38] COc1ccccc1CO/N=C/c1cccn1-c1nccc(N(C)C)c1C#N
  ., -2.5, 2.9, ., -2.4, ., ., ., ., 9.0
[39] Nc1nonc1-n1nnc(C(=O)N/N=C/c2cccnc2)c1CSC1=NCCS1
  1.7, 5.3, -3.6, 4.5, 7.1, 2.9, ., i, -0.4, -37.1
[40] Cc1ccc(NC(=O)c2[nH]cnc2C(=O)NN)cc1
  -1.4, 1.3, 0.6, 9.3, 7.1, 6.6, 1.2, i, -9.0, -0.4

Continued; it opens with the 2 that closed the last part.
Order of results: Beta apoptosis, RanGTP-Impb inh, ALR inh, Ecoli rRNA inh, Calb FLC, Ecoli rRNA inh OD600, AF4-AF9 inh, FGF22 binding, Ecoli rRNA inh RFP, T cruzi inh
[39] Nc1nonc1-n1nnc(C(=O)N/N=C/c2cccnc2)c1CSC1=NCCS1
  1.7, 5.3, -3.6, 4.5, 7.1, 2.9, ., i, -0.4, -37.1
[40] Cc1ccc(NC(=O)c2[nH]cnc2C(=O)NN)cc1
  -1.4, 1.3, 0.6, 9.3, 7.1, 6.6, 1.2, i, -9.0, -0.4
[41] Cc1c(Cl)cccc1Nc1nc(N)nc(CSc2nc3ccccc3s2)n1
  1.0, -2.2, ., -19.1, ?, -10.7, -4.3, i, 13.1, 17.3
[42] Cc1cc(=O)c(C(=O)O)nn1-c1ccccc1
  -7.4, 1.0, -18.5, 14.3, 10.7, 12.5, -1.1, i, 0.3, -8.1
[43] O=c1/c(=C/c2ccco2)sc2n1CN(c1ccccc1)CN=2
  0.5, 6.7, 7.8, ., -34.9, ., ., ., ., -2.1
[44] COc1ccc(/C=N/NC(=O)c2cccnc2)c2ccccc12
  -3.4, -0.2, -18.1, -4.5, -6.6, 2.3, -1.1, i, 0.3, -14.2
[45] Cc1cc(-c2ccccc2)nc(SCC(=O)c2cccc([N+](=O)[O-])c2)n1
  ., 1.5, -3.2, ., 8.1, ., ., ., ., 39.4
[46] C/C(=N\NC(=O)c1ccc(NS(=O)(=O)c2cccs2)cc1)c1ccccn1
  85.9*, 4.4, ., ., -13.2, ., ., ., ., 9.1
[47] CCOC(=O)C1CCN(c2c(NCc3ccc(N(C)C)cc3)c(=O)c2=O)CC1
  -5.9, 0.2, -11.5, 0.9, -4.8, 2.6, -30.6, i, -5.6, -1.8
[48] CCN(C(=O)Cn1cc(C(C)=O)c2ccccc21)c1ccccc1
  6.3, -2.4, -4.2, -14.4, -3.8, -17.4, -0.9, i, -6.7, 7.4
[49] CN(C)S(=O)(=O)N(CC(=O)N1CCN(Cc2ccccc2)CC1)c1ccccc1
  -3.5, 1.3, ., 8.3, 4.8, -1.9, 6.1, i, -2.6, -22.4
[50] Cc1ccc(S(=O)(=O)c2c(N)n(CCC(C)C)c3nc4ccccc4nc23)cc1
  -2.3, 0.8, -25.9, ., 8.5, ., ., ., ., 48.5
[51] O=C(O)C1OC(C(=O)O)C2C1C(F)(F)C2(F)F (stereo not drawn)
  -6.2, ?, -7.2, 14.0, ?, 3.9, 3.8, i, 3.3, -4.0
[52] COCCCN1C(=O)c2ccc(C(=O)OCC(=O)N(C)c3ccccc3)cc2C1=O
  ., 0.8, -13.5, 2.2, 14.5, -1.5, -0.2, i, 1.0, -0.2
[53] Cc1nc2c3ccccc3n(CC(=O)c3ccc(F)cc3)c(=O)n2n1
  2.8, 1.9, -5.5, 4.0, -3.8, 17.5, -2.4, i, -2.8, -14.7

Compound activity as filed in PubChem BioAssay.
